# Bfl-1 A1 inh: inhibitors of the anti-apoptotic protein A1, read as caspase activation. 330,000 compounds, 0.066% hits. caspase activation, % (concentration not given with the values). MEF A1-2A-BIM cells, Caspase-Glo 3/7 luminescence, 3 h; percent of clofoctol response, vehicle zero;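 active means over half of replicate activation scores above 10%, or exactly half above 10 with the replicate mean above 10; inconclusive means replicate mean below 10 yet half the replicates above 10; inactive means over half of replicates below 10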;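 further: wells of about 30 µL received 50 nL stock; many hits fall short of the cut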
# LANA-H2B inh: blocks KSHV LANA binding to histone H2A/H2B. AID 2629. cell-free LANA-H2A/H2B peptide, fluorescence polarization. Q9QR71. 320,000 compounds, 0.6% hits. inhibition, % (concentration not given with the values); in the data active means inhibition mostly above about 10%, no sharp cut-off; inactive means mostly below about 6.7%;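 further: stock transfer was 7.5 nL into about 10 µL; 0% = median of vehicle wells and 100% = median of positive control wells; one replicate is shown; the record names a cut of 25% in any replicate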
# Target sequence (Q9QR71 whole entry, looked up): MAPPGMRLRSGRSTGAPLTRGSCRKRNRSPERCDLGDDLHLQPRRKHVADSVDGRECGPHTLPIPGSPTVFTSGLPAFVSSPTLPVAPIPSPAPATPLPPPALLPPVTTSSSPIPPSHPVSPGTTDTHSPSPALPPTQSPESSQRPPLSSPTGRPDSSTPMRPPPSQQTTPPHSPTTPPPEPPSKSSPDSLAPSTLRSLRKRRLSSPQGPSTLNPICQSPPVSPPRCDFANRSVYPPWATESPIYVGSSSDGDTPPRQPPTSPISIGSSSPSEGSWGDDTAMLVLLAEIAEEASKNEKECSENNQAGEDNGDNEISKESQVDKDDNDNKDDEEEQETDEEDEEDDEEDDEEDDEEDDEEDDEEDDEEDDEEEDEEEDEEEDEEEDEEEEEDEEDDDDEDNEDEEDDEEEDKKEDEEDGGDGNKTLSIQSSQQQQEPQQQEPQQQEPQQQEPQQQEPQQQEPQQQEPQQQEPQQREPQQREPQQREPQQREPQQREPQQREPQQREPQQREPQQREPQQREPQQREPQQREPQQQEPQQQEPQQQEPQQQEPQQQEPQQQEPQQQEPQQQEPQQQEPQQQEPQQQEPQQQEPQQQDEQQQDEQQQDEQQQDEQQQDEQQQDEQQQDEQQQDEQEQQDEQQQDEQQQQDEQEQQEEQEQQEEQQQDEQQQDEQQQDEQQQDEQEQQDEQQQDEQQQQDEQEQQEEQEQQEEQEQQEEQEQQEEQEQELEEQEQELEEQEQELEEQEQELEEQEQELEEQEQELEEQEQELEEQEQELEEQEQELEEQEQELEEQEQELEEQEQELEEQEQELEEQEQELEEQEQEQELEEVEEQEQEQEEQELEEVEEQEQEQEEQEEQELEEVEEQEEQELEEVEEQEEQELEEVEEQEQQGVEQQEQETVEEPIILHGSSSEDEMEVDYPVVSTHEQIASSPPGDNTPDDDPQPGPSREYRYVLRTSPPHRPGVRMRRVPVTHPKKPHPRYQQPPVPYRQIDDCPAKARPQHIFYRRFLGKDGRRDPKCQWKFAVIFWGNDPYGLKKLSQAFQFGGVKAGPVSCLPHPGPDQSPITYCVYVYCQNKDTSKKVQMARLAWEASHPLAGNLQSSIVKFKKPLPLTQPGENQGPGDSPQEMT
# Beta2AR agonist: agonists of human beta-2 adrenergic receptor inducing internalization | response, % (test concentration not listed) | 340,000 compounds, 0.43% hits | AID 504454 | Am2.2-beta2AR cells, FAP receptor internalization, flow cytometry; reference of the scale not given here | P07550;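 active means response above a set limit, near 3 SD of response in nonfluorescent compounds, cut at about 42% in these data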;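 further: stock transfer was 100 nL into about 11 µL; a reference agonist was the positive control; negative values mostly stem from fluorescent compounds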
# Beta apoptosis: blocks beta cell apoptosis; AID 435005; INS-1E cytokine-induced death, ATP luminescence, 48 h; percent of positive-control rescue, neutral wells zero; protection from apoptosis, % (no concentration beside the values); 300,000 compounds, 0.8% hits;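 active means all replicates at 75% or more, or half of them and the mean; inconclusive means half reach 75% but not the mean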;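 further: 0% = cytokine-treated negative control wells and 100% = positive control rescue; higher means more ATP so stronger rescue from cytokine killing; wells of about 40 µL received 100 nL stock; the first replicate is given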
# T cruzi inh: T. cruzi replication inhibition; 300,000 compounds, 1.4% hits; inhibition, % (concentration not given with the values); T. cruzi beta-gal in NIH3T3, luminescence, 90 h;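 active means mean inhibition across valid replicates above about 55%, limit read from the data; inconclusive means mean below that limit but half or more replicates reach it; inactive means mean below it, under half of replicates reach it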;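 further: signal also drops with host cell toxicity which is not excluded here; 0% = plate median of DMSO wells and 100% = zero luminescence signal; higher percent means less beta-gal luminescence so fewer parasites; stock transfer was 50 nL into about 50 µL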
# rRNA inh HTS: inhibitors of bacterial rRNA selective over humanized ribosomes | E. coli WT GFP vs humanized-ribosome RFP mutants, fluorescence, 24 h; active compounds read low; DMSO median 0, no signal -100 | GFP signal change (wild-type ribosome), % (test concentration not listed) | 350,000 compounds, 1.6% hits;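 active means significant combined selectivity score with lowered wild-type GFP, culture density cut under 30%, mutant RFP and density less affected; inactive means any of these conditions unmet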; further: one replicate is shown; some compounds called inactive have numbers as strong as hits
# ALR H2O2 inh: inhibitors of human sulfhydryl oxidase ALR. P55789. purified ALR, DTT oxidation, H2O2 HRP-luminol luminescence. inhibition, % (concentration not given with the values). 290,000 compounds, 3.8% hits. AID 485317;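 active means mean and each replicate at 75% or more; inconclusive means only one of the two met; inactive means neither met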;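 further: stock transfer was 7.5 nL into about 7.5 µL; 0% = neutral wells and 100% = wells with inactivated enzyme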
# Calb FLC: affects C. albicans growth with fluconazole. C. albicans CaCi-2 (fluconazole-resistant clinical isolate) + fluconazole, Alamar Blue growth, 48 h. growth inhibition, % (test concentration not listed). 300,000 compounds, 0.57% hits. AID 1979;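 active means most replicates above 75%; inconclusive means exactly half above 75%; inactive means most below 75%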;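 further: all wells also contain fluconazole at 8 µg/ml as a sub-toxic cotreatment; 0% = median of DMSO wells and 100% = median of geldanamycin control wells; wells of about 8 µL received 7.5 nL stock; the first replicate is given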
# rRNA inh HTS OD600: second read-out of rRNA inh HTS, no call of its own (marks repeat the call); OD600 change, %; measured here: OD600 growth;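 optical density of the mix in the first replicate; 0 = DMSO median and -100 = no signal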
# rRNA inh HTS RFP: further read-out of rRNA inh HTS, marked with its call; RFP signal change, %; measured here: RFP humanized mutant strains;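 first replicate; 0 = DMSO median and -100 = no signal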
# The depositor's hits bear a star; ? = inconclusive; nt = not tested or not shown. An excerpt; rates above refer to the full screens.
SMILES,Bfl-1 A1 inh,LANA-H2B inh,Beta2AR agonist,Beta apoptosis,T cruzi inh,rRNA inh HTS,rRNA inh HTS OD600,rRNA inh HTS RFP,ALR H2O2 inh,Calb FLC
COc1ccc(/C=N/Nc2nc(N3CCCC3)nc(N3CCCC3)n2)cc1O,0.2,6.6,-2,-4,0,nt,nt,nt,99*,13
CCOC(=O)c1cc(C(=O)Nc2ccc(C)c(F)c2)nn1C,-1.4,2.7,-7,2,-14,nt,nt,nt,-14,22
CCCNC(=O)COc1coc(CN2CCN(c3ccccc3F)CC2)cc1=O,1.8,1.9,3,-7,4,-3,7,0.0,nt,-1
C/C(=N/N=C(\C)c1ccccc1O)c1ccccc1O,-6.6,-4.2,-3,-4,4,5,10,5.3,-1,-6
c1ccc(CNc2ccc3ccccc3n2)nc1,-5.8,-0.4,-12,-5,1,15,15,0.6,-22,26
COC(=O)N1C(=O)[C@@](c2ccccc2)(C2CCCCC2)N1C(=O)OC,1.3,4.0,7,-3,-12,2,8,-4.7,12,-3
CCCCOC(=O)CCc1nc2ccccc2[nH]1,0.5,-5.8,-1,-5,-1,nt,nt,nt,-3,-3
COc1ccc(C(=O)N(CCc2ccccc2)Cc2ccccc2)c(OC)n1,0.6,5.4,2,5,27,-15,-23,4.1,-3,-1
CN(c1nc2ccccc2n2c(C3CC3)nnc12)S(=O)(=O)c1ccccc1,0.7,-3.3,-1,7,9,10,8,7.4,1,-3
CC(C)(Cc1ccccc1)/[N+]([O-])=C\c1ccc(C(F)(F)F)cc1,0.7,-3.2,15,8,-4,16,2,6.9,-7,0
Cc1ccc2c(c1)C1CN(C)CCC1N2S(=O)(=O)c1cccc(C(F)(F)F)c1 (stereo unspecified),-0.3,1.1,6,-4,nt,-1,-39,-3.1,0,nt
O=C(C[n+]1ccc(C(=O)NCc2ccccc2)cc1)c1ccc(OC(F)F)cc1,0.5,1.7,1,-1,-2,-12,-12,-0.2,-29,5
Cc1cccc(-c2ocnc2C(=O)N2CCN(C(=O)c3cccs3)CC2)c1,-0.5,-2.7,-13,6,-2,2,-3,-1.0,-22,1
CCOC(=O)C1CCN(S(=O)(=O)c2ccc(C(C)(C)C)cc2)CC1,-1.9,-1.0,5,-2,-13,3,5,11,-1,15
Cc1csc(NC(C)c2nc3cc(C(F)(F)F)ccc3n2CCOCCO)n1 (stereo unspecified),-1.2,1.1,-6,-6,-18,3,14,7.2,59,0
Cc1ccc(C23CC4CC(CC(CC(=O)N5CCOCC5)(C4)C2)C3)cc1,0.5,-3.1,5,nt,4,nt,nt,nt,nt,-25
COc1cc(C2NC(=O)NC(C)=C2C(=O)OCc2ccc(C)cc2)cc(OC)c1OC (stereo unspecified),-0.1,-1.2,-29,-2,5,10,2,6.3,-12,-1
CC1CCCCC12NC(=O)N(CC(=O)OCC(=O)c1ccc(OC(F)F)cc1OC(F)F)C2=O (stereo unspecified),-0.7,-1.1,0,-3,-6,10,14,3.5,-2,2
COc1cc(C(=O)NCC2(c3ccccc3)CCCC2)ccc1OC(C)C,0.9,2.0,-22,7,14,-3,-21,-4.3,-7,-18
COC(=O)c1ccc(-n2nc(C(F)(F)F)c3c2-c2ccoc2CC3)cc1,0.1,-2.2,-5,1,-2,nt,nt,nt,nt,24
N#Cc1nc(-c2ccc(F)cc2)oc1NCc1ccccc1,0.7,-3.8,7,-1,-5,1,2,0.7,-2,3
COC(=O)c1cc2n(n1)CCN(Cc1ccccc1Cl)C2=O,-0.2,0.3,15,-5,-8,nt,nt,nt,-12,-2
CCN(Cc1nc2ccccc2c(=O)[nH]1)C(=O)C1CC(=O)N(c2cccc3ccccc23)C1 (stereo unspecified),-0.4,2.2,14,-5,nt,0,-2,-1.4,-14,nt
COc1nc(NCc2ccc(Cl)cc2)nc(OC)n1,1.0,3.1,8,-1,-13,nt,nt,nt,-3,-4
O=c1cc(CSc2ccccc2)nc(-c2ccncc2)[nH]1,0.3,1.2,-6,nt,0,24,16,2.3,1,24
N#CC1=C(N)SC(N)=C(C#N)C1Cc1ccccc1,0.2,-3.4,-7,3,-2,-10,-9,-3.5,14,23
O=C(O)C1CCCCN1C(=O)c1cc2c(s1)CCCCC2 (stereo unspecified),0.5,11,6,0,nt,-1,4,0.8,nt,nt
CCOC(=O)CSc1ncc(-c2ccccc2)cn1,-4.0,4.6,-2,-1,0,nt,nt,nt,-16,-10
CC1C2CC(CC1(C)C)N(C(=O)Nc1ccc3nccnc3c1)C2 (stereo unspecified),-0.2,0.5,-9,-4,-2,nt,nt,nt,-13,-13
O=C1CS/C(=N/N=C/c2ccccc2)N1c1ccc(O)cc1,1.1,0.0,-5,-3,-5,7,10,1.5,2,-10

# Next section; the last 2 above are carried over.
SMILES,Bfl-1 A1 inh,LANA-H2B inh,Beta2AR agonist,Beta apoptosis,T cruzi inh,rRNA inh HTS,rRNA inh HTS OD600,rRNA inh HTS RFP,ALR H2O2 inh,Calb FLC
CC1C2CC(CC1(C)C)N(C(=O)Nc1ccc3nccnc3c1)C2 (stereo unspecified),-0.2,0.5,-9,-4,-2,nt,nt,nt,-13,-13
O=C1CS/C(=N/N=C/c2ccccc2)N1c1ccc(O)cc1,1.1,0.0,-5,-3,-5,7,10,1.5,2,-10
O=C(NCc1ccco1)NC1CCCCC1,1.3,7.1,0,-1,-11,nt,nt,nt,-3,-10
CC(=O)c1c(C)n(-c2ccc(Br)cc2)c2ccc(O)cc12,0.5,1.8,-1,-10,-3,-2,4,1.0,-39,4
Cc1ccc(C(=O)COC(=O)c2ccncc2)cc1[N+](=O)[O-],?,-0.5,4,-4,0,nt,nt,nt,64,11
COc1ccc(-c2cnn3c(N)c(S(=O)(=O)c4ccccc4)cnc23)cc1,-0.7,0.5,8,2,30,nt,nt,nt,-5,-21
Cc1ccc(NS(=O)(=O)c2ccc(Cl)c(C(=O)O)c2)cc1S(=O)(=O)N1CCOCC1,0.7,3.5,-1,-5,-4,13,1,1.5,nt,-11
O=C(Oc1c(Cl)cc(Cl)c2cccnc12)c1cccc([N+](=O)[O-])c1,-0.1,-2.3,5,65,27,nt,nt,nt,-16,104*
O=C(CCN1C(=O)C2C3CCC(C3)C2C1=O)Nc1ccc(Cl)cc1Cl (stereo unspecified),nt,nt,-18,nt,3,-3,4,1.0,nt,4
COc1ccc(C(=O)Nc2ccccc2C(=O)NC(Cc2ccc(O)cc2)C(=O)NNC(=O)c2ccccc2)cc1 (stereo unspecified),0.1,-3.6,7,0,1,nt,nt,nt,7,?
CC(C)[C@H](NC(=O)N1CC(=O)Nc2ccccc21)C(=O)N[C@@H](Cc1ccccc1)C(=O)O,-0.2,1.4,-2,nt,-6,7,1,6.9,-7,-5
S=c1[nH]nc(-c2cccnc2)n1/N=C/C=C/c1ccco1,0.1,-3.0,4,-7,-3,18,22,3.6,14,12
CC(C)(C)OC(=O)NCc1ccc(NC(=O)c2nc[nH]c2C(=O)N[C@@H](Cc2ccccc2)C(=O)OCc2ccccc2)cc1,1.9,3.7,24,-1,-8,4,11,11,-7,15
Nc1nc(NCC(=O)O)nc(N2CCCCCC2)c1[N+](=O)[O-],1.0,-4.5,-4,3,0,9,15,1.5,-10,3
CCCC(O)(CCN1CCOCC1)c1ccc(Br)cc1 (stereo unspecified),-0.3,-7.5,4,-6,-7,nt,nt,nt,39,-9
COc1ccc(CCNC(=O)COC(=O)Cc2ccccc2[N+](=O)[O-])cc1,0.2,-4.1,1,-4,nt,0,-2,1.2,-4,nt
COc1ccc(CCNS(=O)(=O)CC23CCC(CC2=O)C3(C)C)cc1OC (stereo unspecified),0.2,1.6,2,0,1,2,-3,-9.9,-2,-7
CC(=O)NS(=O)(=O)c1ccc(N2C(=O)CC(Sc3nccc(C)n3)C2=O)cc1 (stereo unspecified),0.1,-2.6,-4,nt,-23,-7,-1,-4.5,4,-1

# Ordered by molecular weight (ascending): part of the list above.
SMILES,Bfl-1 A1 inh,LANA-H2B inh,Beta2AR agonist,Beta apoptosis,T cruzi inh,rRNA inh HTS,rRNA inh HTS OD600,rRNA inh HTS RFP,ALR H2O2 inh,Calb FLC
O=C(NCc1ccco1)NC1CCCCC1,1.3,7.1,0,-1,-11,nt,nt,nt,-3,-10
CCOC(=O)CSc1ncc(-c2ccccc2)cn1,-4.0,4.6,-2,-1,0,nt,nt,nt,-16,-10
S=c1[nH]nc(-c2cccnc2)n1/N=C/C=C/c1ccco1,0.1,-3.0,4,-7,-3,18,22,3.6,14,12
O=C(O)C1CCCCN1C(=O)c1cc2c(s1)CCCCC2 (stereo unspecified),0.5,11,6,0,nt,-1,4,0.8,nt,nt
Nc1nc(NCC(=O)O)nc(N2CCCCCC2)c1[N+](=O)[O-],1.0,-4.5,-4,3,0,9,15,1.5,-10,3
O=C1CS/C(=N/N=C/c2ccccc2)N1c1ccc(O)cc1,1.1,0.0,-5,-3,-5,7,10,1.5,2,-10
CC1C2CC(CC1(C)C)N(C(=O)Nc1ccc3nccnc3c1)C2 (stereo unspecified),-0.2,0.5,-9,-4,-2,nt,nt,nt,-13,-13
CCCC(O)(CCN1CCOCC1)c1ccc(Br)cc1 (stereo unspecified),-0.3,-7.5,4,-6,-7,nt,nt,nt,39,-9
CC(=O)c1c(C)n(-c2ccc(Br)cc2)c2ccc(O)cc12,0.5,1.8,-1,-10,-3,-2,4,1.0,-39,4
COc1ccc(CCNC(=O)COC(=O)Cc2ccccc2[N+](=O)[O-])cc1,0.2,-4.1,1,-4,nt,0,-2,1.2,-4,nt
COc1ccc(-c2cnn3c(N)c(S(=O)(=O)c4ccccc4)cnc23)cc1,-0.7,0.5,8,2,30,nt,nt,nt,-5,-21
O=C(CCN1C(=O)C2C3CCC(C3)C2C1=O)Nc1ccc(Cl)cc1Cl (stereo unspecified),nt,nt,-18,nt,3,-3,4,1.0,nt,4
COc1ccc(CCNS(=O)(=O)CC23CCC(CC2=O)C3(C)C)cc1OC (stereo unspecified),0.2,1.6,2,0,1,2,-3,-9.9,-2,-7
CC(=O)NS(=O)(=O)c1ccc(N2C(=O)CC(Sc3nccc(C)n3)C2=O)cc1 (stereo unspecified),0.1,-2.6,-4,nt,-23,-7,-1,-4.5,4,-1
CC(C)[C@H](NC(=O)N1CC(=O)Nc2ccccc21)C(=O)N[C@@H](Cc1ccccc1)C(=O)O,-0.2,1.4,-2,nt,-6,7,1,6.9,-7,-5
Cc1ccc(NS(=O)(=O)c2ccc(Cl)c(C(=O)O)c2)cc1S(=O)(=O)N1CCOCC1,0.7,3.5,-1,-5,-4,13,1,1.5,nt,-11
COc1ccc(C(=O)Nc2ccccc2C(=O)NC(Cc2ccc(O)cc2)C(=O)NNC(=O)c2ccccc2)cc1 (stereo unspecified),0.1,-3.6,7,0,1,nt,nt,nt,7,?
